StopGo RLuc = Primary qHTS Assay for Foot and Mouth Disease Virus Antivirals against NCGC Sytravon and CBC Compound Libraries: Renilla Luciferase Signal; HEK cells with a luciferase reporter of 2A StopGo recoding; Potency, µM (doses to about 57.5 µM), for inactives: at the highest dose signal change, negative = less light; hit rate 0.32% among 120,000; AID 1745857, 2022; active means well fitted falling curve with a large enough effect; inconclusive means small, poorly fitted or top-dose-only effect; inactive means no such curve, though single readings can be large or run the other way; note: nearly all actives have a fitted effect of over 55% in size; overnight with compound
2A firefly = Primary qHTS Assay for Foot and Mouth Disease Virus Antivirals against NCGC Sytravon and CBC Compound Libraries: Firefly Luciferase Signal; hit rate 0.23% among 120,000; HEK cells with a luciferase reporter of 2A StopGo recoding; Potency, µM (top dose mostly 57.5 µM), inactives show top-dose signal change, negative = less light; AID 1745856, 2022; active = well fitted falling curve with a large enough effect; inconclusive = small, poorly fitted or top-dose-only effect; inactive = no such curve, though single readings can be large or run the other way; note: nearly all actives have a fitted effect of over 60% in size; overnight with compound
Active calls of the source: *; ? = inconclusive; & = joins results of further samples; [ ] = dose if it differs, or a comment. % is set by controls: 0 for no effect and ±100 for the full control effect; potency is the fitted concentration of half-maximal effect.

Start of the data: the first 5 entries as a preview:
Every second line gives: StopGo RLuc, 2A firefly
CCOC(=O)c1cnc2c(ccc3ccccc32)c1Nc1ccccc1OC
    -16%, -20%
CCCCNS(=O)(=O)c1ccc2nc(-c3cccnc3)cc(C(=O)NC3CC3)c2c1
    120%[activator], 0%
O=C(COC(=O)C1(c2ccc(Cl)cc2)CCCC1)c1ccc(Br)cc1
    -21%, -16%
CCCCn1c(=O)c2oc3ccccc3c2n(CC(=O)Nc2cccc(Cl)c2)c1=O
    -14%, -7%
O=C(NC1CCSc2ccccc21)c1cc2c(s1)CCC2 (stereo not given)
    68%[activator], 108%[activator]

Main list, previewed entries included:
Every second line gives: StopGo RLuc, 2A firefly
CCOC(=O)c1cnc2c(ccc3ccccc32)c1Nc1ccccc1OC
    -16%, -20%
CCCCNS(=O)(=O)c1ccc2nc(-c3cccnc3)cc(C(=O)NC3CC3)c2c1
    120%[activator], 0%
O=C(COC(=O)C1(c2ccc(Cl)cc2)CCCC1)c1ccc(Br)cc1
    -21%, -16%
CCCCn1c(=O)c2oc3ccccc3c2n(CC(=O)Nc2cccc(Cl)c2)c1=O
    -14%, -7%
O=C(NC1CCSc2ccccc21)c1cc2c(s1)CCC2 (stereo not given)
    68%[activator], 108%[activator]
Clc1cccc(-n2ncc3c(NCCc4ccccc4)ncnc32)c1
    5%&-2%, 75%&161%[activator]
Cc1nc(Nc2ccc(NC(=O)c3ccco3)cc2)cc(N2CCOCC2)n1
    26%, 0%
Cc1cc2oc(C(=O)Nc3sc4c(c3C(=O)NCC3CCCO3)CCCC4)cc(=O)c2cc1C (stereo not given)
    -8%, -6%
O=C1C(=O)N(C2CCNCC2)CCN1Cc1ccccc1
    -8%, -18%
COc1ccc(/C=C/c2ccc3cccc([N+](=O)[O-])c3n2)cc1OC
    -23%, 88%[activator]
Cc1cc2c(cc1S(=O)(=O)NCc1ccc(F)cc1)n(C)c(=O)c(=O)n2C
    98%[activator], 18%
Cn1c(=O)[nH]c(=O)c2c1nc(NCc1ccccc1)n2CCO
    -4%, 0%
CCc1ccc(NC(=O)Cn2nnc(-c3ccccc3N)n2)cc1
    61%[activator], 14%
O=C(CCC1CCCCC1)N(c1ccc(Br)cc1)C1C=CS(=O)(=O)C1 (stereo not given)
    -18%, -19%
CCc1nnc(NC(=O)c2cc(C)nc3ccc(C)cc23)s1
    -15%, -5%
Cc1cc(OCc2coc(-c3ccccc3)n2)ccc1Cl
    -2%, 154%[activator]
COCCn1cnnc1SCc1ccc(Cl)s1
    18%, 0%
Nc1ncn([C@@H]2O[C@H](CO)[C@@H](O)[C@H]2O)c(=O)n1
    14%, 3%
CC(=O)Nc1ccc(NC(=O)c2cc(=O)c3cc(Cl)ccc3o2)cc1
    2%, 3%
Cc1c(Cl)cccc1NCc1cc(=O)n2[nH]c(-c3ccccc3)nc2n1
    -8%, 1%

Additional records follow.
Every second line gives: StopGo RLuc, 2A firefly
CCCc1cnc2c(c1SCC(=O)Nc1ccc(C)c(Cl)c1)c(=O)n(C)c(=O)n2C
    61%[activator], 14%
Cc1cc(C)c(NC(=O)C(C)n2c(=O)c(C(F)(F)F)nc3ccccc32)c(C)c1 (stereo not given)
    -11%, -10%
COc1cccc(CNC(=O)CC(c2ccc(F)cc2)N2Cc3ccccc3C2=O)c1 (stereo not given)
    99%[activator], -17%
COc1ccc2nc(C)c(C(=O)NCc3cccnc3-n3cncn3)cc2c1
    16%, 24%
CCOC(=O)CSc1nc2cc(OC)c(OC)cc2c2nc(-c3ccccc3)nn12
    -12%, -21%
COc1ccc(N2C(=O)NC(=O)C3(Cc4cc(C)ccc4N(C)C3)C2=O)cc1 (stereo not given)
    -18%, -4%
O=C(CN1CCN(c2ccc(Cl)cc2)CC1)Nc1ccc(F)cc1F
    7%, 67%[activator]
c1ccc(-c2c(SSc3c(-c4ccccn4)c(-c4ccccn4)n4ccccc34)c3ccccn3c2-c2ccccn2)nc1
    -4%[1.06 µM], ?
NC(=O)c1cc(S(=O)(=O)NCc2ccccc2)cs1
    69%[activator], -21%
CC(C)n1nc(C(=O)N2CCSCC2)c2ccccc2c1=O
    -4%, 7%
CN(CC(=O)NC1(c2ccccc2)CCC1)c1ncnc2nc[nH]c12
    -1%, -2%
Nc1nccnc1C(=O)Nc1ccc(F)c(Cl)c1
    -10%, 203%[activator]
CCOC(=O)CC(NC(=O)N1CCC(CN2CCC(C)CC2)CC1)c1ccccc1 (stereo not given)
    -8%, -15%
CC(C)CNC(=O)C1CCN(c2ncnc3nc[nH]c23)CC1
    4%, 8%
COc1ccc2c(c1)c1c(c(=O)n(-c3cccc(C)c3)c(=O)n1CC(=O)N1CCCC1)n2C
    -13%, -11%
COc1cccc(CNC(=O)CCCN2C(=O)CCn3nc(-c4cccn4C)cc32)c1
    -4%, -10%
COC(=O)c1c(NC(=O)COc2c(C)ccc(C)c2C)sc2c1CCC(C)C2 (stereo not given)
    -2%, 6%
Cc1cccc(OCC(=O)N(Cc2ccc(C(C)C)cc2)Cc2ccco2)c1C
    14%, -18%
CC1=C(C(=O)Nc2ccccc2C)C(c2ccccn2)n2nc(SCc3ccccc3F)nc2N1 (stereo not given)
    -2%, -8%
Cc1cc(Br)ccc1NC(=O)CN(C)C(=O)c1ccccc1OCc1c(C)noc1C
    10%, -1%

Further compounds:
Every second line gives: StopGo RLuc, 2A firefly
CC(SC1CCCCC1)C(=O)Nc1cccc(C#N)c1 (stereo not given)
    6%, -4%
O=C(NCCN1CCN(C(=O)c2cc(Cl)cc(Cl)c2)CC1)c1cc(Cl)cc(Cl)c1
    -1%, 7%
O=C(NCCc1ccccc1)c1cc(-c2ccccc2)nc2ccccc12
    5%, 0%
Cc1cccc(OCC(=O)Nc2nc(-c3ccc(S(=O)(=O)N4CCOCC4)cc3)cs2)c1C
    0%, -7%
CCCC(=O)OCC(=O)c1ccc(-c2ccccc2)cc1
    7%, 0%
COc1ccc(C2=C(C(C)=O)Sc3nnc(-c4ccc(C)cc4)n3N2C(C)=O)cc1OC
    0%, -20%
COc1ccc(CCNC(=O)[C@H](CCS(C)(=O)=O)N2Cc3ccccc3C2=O)cc1OC
    -3%, -8%
CCOc1ccccc1N(CC(=O)Nc1ccc(OC)c(Cl)c1)S(=O)(=O)c1ccccc1
    56%[activator], 6%
CC(C)(C)NS(=O)(=O)c1cccc(NC(=O)c2ccc(NC(=O)C3CC3)cc2)c1
    151%[activator], 8%
O=C(c1cc(-c2ccc(F)cc2)on1)N1CCN(c2ccc(F)cc2)CC1
    -11%, -13%
CN1C(=O)c2ccccc2Sc2ccc(NC(=O)COc3ccc(F)cc3)cc21
    ?, ?
Cc1ccc(Sc2ccc(Cl)cc2N)c(C)c1
    6%, 12%
CCOc1ccccc1NC(=O)C1CCC(CNS(=O)(=O)c2ccc3c(c2)CCCC(=O)N3)CC1 (stereo not given)
    ?, ?
CC1CCN(CCCNc2nc(-c3ccncc3)nc3ccccc23)CC1
    -23%, -16%
Cc1cc(NC(=O)Nc2csc3c2CCCC3)ccc1Br
    96%[activator], 74%[activator]
CSc1ccc(CCNC(=O)CCc2c(C)nc3c(c(C)nn3-c3ccccc3)c2C)cc1
    -10%, -15%
Cc1ccc(C(=O)Nc2ncn(CC(=O)NCc3ccccc3)n2)cc1
    4%, 0%
Fc1ccc(Nc2nc(SCc3ccccc3F)nc3ccccc23)cc1
    -1%, -17%
COc1ccc(/C=C/C(=O)N2CCC(c3nc4ccccc4o3)CC2)cc1OC
    71%[activator], -25%
Cc1ccc(C(=O)CC(SCC(=O)O)c2ccc(Cl)cc2)cc1 (stereo not given)
    8%, 5%

Entries shown so far that have a furan ring, fused or not, in the order listed:
Every second line gives: StopGo RLuc, 2A firefly
CCCCn1c(=O)c2oc3ccccc3c2n(CC(=O)Nc2cccc(Cl)c2)c1=O
    -14%, -7%
Cc1nc(Nc2ccc(NC(=O)c3ccco3)cc2)cc(N2CCOCC2)n1
    26%, 0%
Cc1cccc(OCC(=O)N(Cc2ccc(C(C)C)cc2)Cc2ccco2)c1C
    14%, -18%

Continuation.
Every second line gives: StopGo RLuc, 2A firefly
CCOC(=O)c1c(C)[nH]c(C)c1S(=O)(=O)N1CCN(c2ccc(Cl)cc2)CC1
    56%[activator], -18%
COc1ccc(CNCC2CCCO2)cc1OCc1ccccc1 (stereo not given)
    -4%, 0%
CCCC1Cc2c(sc3nc(SCC)nc(N)c23)CO1 (stereo not given)
    -1%, 11%
Cc1oc(-c2ccccc2)nc1C(=O)NCc1ccccc1
    2%, 18%
CCCN1CCC(NC(=O)CC(F)(F)F)CC1
    6%, -4%
O=S(=O)(c1ccc(Br)cc1)c1nc(-c2ccco2)oc1SCc1ccccc1Cl
    125%[activator], -12%
Cc1ccccc1C(=O)Oc1cc(-c2ccc3c(c2)OCO3)cc(=O)c2c(C)oc(C)c12
    -6%, -9%
CC(Oc1ccc(Cl)cc1Cl)c1nc(-c2ccc(Br)o2)no1 (stereo not given)
    13%, 44%[activator]
CCOc1ccc(S(=O)(=O)[C@H]2CS(=O)(=O)C[C@@H]2N2CCOCC2)cc1
    5%, -8%
O=C(COc1ccc(-n2cnnn2)cc1)Nc1ccccc1Oc1ccccc1
    -8%, 5%
NC/C=C/C(=O)O
    -3%, 18%[11.5 µM]
CC(C)n1nccc1N(CC(=O)Nc1ccc(C#N)cc1)S(=O)(=O)c1ccccc1
    206%[activator], -17%
CC(C)n1nc(C(=O)NC2CCS(=O)(=O)C2)c2ccccc2c1=O (stereo not given)
    -12%, -12%
CCOCCCNC(=O)c1cc2c(=O)n3ccccc3nc2s1
    -7%, 49%[activator]
CC(C)n1nc(C(=O)Nc2nnc(C3CC3)s2)c2ccccc2c1=O
    30%[activator], 29%
O=C(CNc1ccc(S(=O)(=O)N2CCCC2)cc1)N1CCN(C(=O)c2cccs2)CC1
    -8%, -6%
CCN(CC)S(=O)(=O)c1cc(NC(=O)C2CCCN(C(=O)c3ccc(Cl)cc3)C2)ccc1C (stereo not given)
    ?, ?
O=C(Nc1nc(-c2ccc(F)c(F)c2)cs1)c1cc(=O)c2ccccc2o1
    -1%, 16%
CCCCCNC(=O)NC(C)C(=O)NCC (stereo not given)
    -9%, -3%
Cc1cc(OCC(F)F)ccc1N
    3%, 4%

Quoted at random: 2 records from the list.
Every second line gives: StopGo RLuc, 2A firefly
Cc1oc(-c2ccccc2)nc1C(=O)NCc1ccccc1
    2%, 18%
Cc1cc(OCC(F)F)ccc1N
    3%, 4%

(further entries)
Every second line gives: StopGo RLuc, 2A firefly
COc1ccc(-c2nc(SCc3cc(=O)c4cccc(Cl)c4[nH]3)n[nH]2)cc1
    11µM*, ?
O=c1cc(CN2CCN(S(=O)(=O)c3ccc4c(c3)OCCO4)CC2)c2ccc(O)cc2o1
    -8%, -2%
Clc1cccc(-n2ncc3c(NCCC4=CCCCC4)ncnc32)c1
    -14%, -1%
Cc1ccc(C(=O)/C=C/c2ccccc2F)o1
    17%, 0%
Cc1ccc(NC(=O)CSc2nccn2Cc2ccc3c(c2)OCO3)c(C)c1
    21%, 6%
COc1ccc(NC(=O)CSc2nc(C)cc(C)c2C(=O)Nc2cccc(C)c2)cc1
    -6%, -15%
COc1ccc(OCC(=O)NCCN2CCN(S(=O)(=O)c3ccc(C)cc3)CC2)cc1
    8%, 2%
Cc1ccc(S(=O)(=O)Oc2ccccc2C2C3=C(CCCC3=O)OC3=C2C(=O)CCC3)cc1
    37%[activator], -4%
O=C(CSc1nncn1-c1ccccc1F)Nc1ccccc1C(=O)NC1CC1
    7%, 25%
Cc1ccc(/C=N/N(c2ccccc2)c2ccccc2)cc1
    7%, 1%
Cc1ccccc1N1CC(c2nnc(NC(=O)c3ccco3)s2)CC1=O (stereo not given)
    -8%, -11%
CCOCCCNC(=O)c1cn(CC(C)C)c(=O)c2c1c1ccccc1n2C
    -7%, -12%
CC(=O)Oc1ccc2c(=O)c(-c3ccc(Cl)cc3)c(C(F)(F)F)oc2c1
    ?, ?
COc1ccc(-n2c3c(cc(-c4nc(-c5ccc(Cl)cc5)cs4)c2=O)C(=O)CC(C)(C)C3)cc1Cl
    -15%, -10%
O=C1[C@H]2C[C@@]3(n4ccc5ccccc54)c4ccccc4N(S(=O)(=O)c4ccccc4)[C@H]3N2C(=O)CN1Cc1ccccc1
    -1%, -14%
CC(=O)c1c(C)n([O-])c2cc(Cl)c(Cl)cc2[n+]1=O
    0%, -2%
CC(=O)N1c2ccc(S(=O)(=O)N3CCCCCC3)cc2CC1C(=O)NCc1ccc(Cl)cc1 (stereo not given)
    -10%, -18%
Cc1nnc(SCC(=O)Nc2sc3c(c2C#N)CCCC3)n1CC(C)C
    -7%, 4%
Cc1cc(C(=O)CSc2nc3ccccc3o2)c(C)n1CC(F)(F)F
    ?, 31%[activator]
Cc1cccn2c(=O)c3cc(C(=O)NCc4ccccc4Cl)sc3nc12
    -8%, -12%
Cn1c(=O)[nH]c(=O)c2c1nc(NCc1ccco1)n2Cc1ccccc1
    47%[activator], 60%[activator]
CCN(CC)CCNC(=O)c1n[nH]c(=O)c2ccccc12
    -4%, 0%
COc1ccc(C)cc1NC(=O)CSc1nc2ccsc2c(=O)n1-c1ccccc1
    4%, -7%

High-throughput results deposited in PubChem BioAssay by National Center for Advancing Translational Sciences (NCATS).
